Polio RdRp inh: inhibitors of poliovirus RNA polymerase binding and polymerization | poliovirus polymerase elongation, fluorescence polarization; active compounds read low | hit rate 0.66% among 150,000 | % elongation, % (compound at 16.7 µg/mL) | AID 588519; in the data active = % elongation below about 90%; also: some results filed as inactive read as strong as hits
Target sequence (P03300 1749-2209 limits assumed): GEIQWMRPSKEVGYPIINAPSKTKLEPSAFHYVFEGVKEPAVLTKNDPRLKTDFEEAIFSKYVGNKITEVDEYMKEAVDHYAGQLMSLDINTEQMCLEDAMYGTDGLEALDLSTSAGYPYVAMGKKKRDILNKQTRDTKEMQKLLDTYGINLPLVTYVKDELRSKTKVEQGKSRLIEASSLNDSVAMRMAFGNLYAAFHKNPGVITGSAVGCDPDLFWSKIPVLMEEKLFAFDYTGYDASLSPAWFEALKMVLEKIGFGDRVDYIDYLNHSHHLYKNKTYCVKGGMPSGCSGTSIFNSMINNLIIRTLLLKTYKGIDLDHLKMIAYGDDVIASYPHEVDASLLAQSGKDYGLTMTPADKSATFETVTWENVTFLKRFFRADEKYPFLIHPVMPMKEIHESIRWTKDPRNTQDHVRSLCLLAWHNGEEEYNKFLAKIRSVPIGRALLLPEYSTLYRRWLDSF
Polio RdRp inh intensity: recorded beside Polio RdRp inh, whose call it bears; % elongation; measured here: total intensity read-out; formula for this scale not given here;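 total fluorescence in place of polarization; lower means less elongation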
* = called active by the depositor. This is a subset; the hit share may differ from the screen's.

mol | Polio RdRp inh | Polio RdRp inh intensity
CCOC(=O)c1ccccc1NC(=O)Cn1cc(C(=O)c2cccc(OC)c2)c(=O)c2ccc(C)nc21 | 110 | 106
CCc1cnc2c(c1SCC(=O)NCc1ccc(C)cc1)c(=O)n(C)c(=O)n2C | 100 | 106
CC(=O)Nc1c(C)nn(-c2ccccc2)c1N1CCC(C(=O)NCc2ccc(F)cc2)CC1 | 108 | 106
O=C(CCC1N=C2c3ccccc3N=C(SCc3ccc(Cl)cc3)N2C1=O)NC1CCCCC1 (stereo not given) | 106 | 110
Cc1noc(/C=C/c2ccco2)c1S(=O)(=O)N1CCC(C(=O)Nc2ccc(F)c(Cl)c2)CC1 | 109 | 104
CCN(Cc1ccccc1)S(=O)(=O)c1cc(Br)cc2c1N(C(=O)C1CC1)CC2 | 106 | 107
Cc1ccc(S(=O)(=O)Nc2cccc(-c3ccc(N4CCCCC4)nn3)c2)s1 | 111 | 114
COc1cccc(CNC(=O)c2ccc(CN3CC(=O)N4CCCCC4C3=O)cc2)c1 (stereo not given) | 104 | 105
Cc1ccc(S(=O)(=O)N2CCc3cc(C(=O)Nc4ccc(C)c(C)c4)ccc32)cc1 | 107 | 106
COc1cccc(CNC(=O)Cc2ccc(NC(=O)N3CCSc4ncccc43)cc2)c1OC | 104 | 107
Cc1ccc(NC(=O)c2sc3ncn(Cc4cccc(F)c4)c(=O)c3c2C)c(Br)c1 | 104 | 114
COc1ccc(Nc2ncc(C(=O)Nc3cc(Cl)c(OC)cc3OC)c3ccccc23)cc1 | 103 | 105
Cc1cccc(C(=O)NCC(c2ccco2)S(=O)(=O)c2cccs2)c1 (stereo not given) | 98 | 102
CCC(=O)N1CCc2cc(CNC(=O)Nc3cc(Cl)ccc3C(=O)OC)ccc21 | 101 | 105
Cc1c(Cl)cccc1NC(=O)c1cccc(NC(=O)N2CCSc3ncccc32)c1 | 103 | 100
CCc1ccccc1NC(=O)c1cc(S(=O)(=O)NC2CCCC2)ccc1F | 115 | 112
Cn1c(=O)oc2cc(S(=O)(=O)N3CCC(C(=O)N4CCN(c5ccc(Cl)cc5)CC4)CC3)ccc21 | 107 | 112
CCOc1ccc(CCNC(=O)c2ccc(CS(=O)Cc3ccc(Cl)cc3)o2)cc1 (stereo not given) | 103 | 107
COc1ccc(C(CNC(=O)c2oc3cc(C)c(C)cc3c2C)N2CCCCC2)cc1 (stereo not given) | 110 | 108
Cc1cccc(NC(=O)c2c(NC(=O)c3cccs3)sc3c2CCC(C)C3)c1 (stereo not given) | 107 | 112
COc1ccc(NC(=O)N2CCN(S(=O)(=O)c3ccc4c(ccn4C)c3)CC2)cc1OC | 107 | 96
Cc1ccc(CCNC(=O)C2CC(=O)N(CCc3ccccc3)C2)cc1 (stereo not given) | 114 | 109
COc1ccccc1CNC(=O)Cn1ncc2c3ccccc3n(Cc3ccccc3C)c2c1=O | 106 | 105
Cc1ccc(NC(=O)CCS(=O)(=O)c2ccc3nc(C)sc3c2)c(C)c1 | 110 | 111
O=C(NCc1ccc(Cl)cc1)c1cnc(N2CCOCC2)c2ccccc12 | 110 | 113
CCOc1ccc(Nc2ncnc3c2nc2n3CCCC2)cc1 | 105 | 104
CC(=O)c1ccc(N2CCN(C(=O)CCn3cnc4onc(-c5ccc(F)cc5)c4c3=O)CC2)cc1 | 110 | 110
COc1cccc(C(=O)Nc2c(C(=O)Nc3ccc(F)cc3)oc3ccccc23)c1OC | 105 | 109
CCOC(=O)c1c(-c2ccc(Br)cc2)csc1NC(=O)c1ccccc1F | 106 | 107
CC(C)CCOc1ccc(Cn2c(=O)oc3ccccc32)cc1 | 105 | 105
Cc1ccc(Cl)cc1NC(=O)C(=O)NCC(c1cccnc1)N1CCc2ccccc21 (stereo not given) | 105 | 106
COc1ccc(-c2cnnn2-c2ccc(NC(=O)c3ccccc3OC)cc2)cc1 | 109 | 101
CSc1ncc2c(n1)-c1ccccc1N(Cc1ccccc1)S2(=O)=O | -15* | 16*
COc1ccc(CNC(=O)Cn2ncc3c4ccccc4n(Cc4cccc(Cl)c4)c3c2=O)cc1 | 159 | 197
COCCN(CCOC)S(=O)(=O)c1ccc(C(=O)Nc2sc3c(c2C(N)=O)CCCC3)cc1 | 106 | 108
COC(=O)c1c(NC(=O)Cc2coc3cc(C)ccc23)sc2c1CCC2 | 113 | 110
COc1ccc(-c2noc(N3CCC(C(=O)N4CCN(c5cccc(C)c5C)CC4)CC3)n2)cc1 | 106 | 111
CC(=O)Nc1ccc(NC(=O)CCS(=O)(=O)c2ccc3c(c2)CC(=O)N3C)cc1 | 102 | 106
Cn1nnc2c(N3CCN(c4ccc(F)cc4)CC3)ncnc21 | 107 | 107
Cc1ccc(NC(=O)NCCOCCn2c(=O)oc3ccccc32)cc1F | 108 | 103
Cc1ccc(-c2nc3scc(CCNS(=O)(=O)c4ccc(Oc5ccccc5)cc4)n3n2)cc1 | 100 | 100
CCS(=O)(=O)NCC(c1ccco1)N1CCN(c2ccc(OC)cc2)CC1 (stereo not given) | 104 | 103
CCc1ccc(CNC(=O)c2cc(-c3ccc(Br)s3)nc3ccccc23)cc1 | 106 | 109
Cc1ccc(NC(=O)c2nc(S(C)(=O)=O)ncc2N(Cc2ccco2)Cc2cccs2)c(C)c1 | 102 | 104
CC1CN(C(=O)CCC(=O)Nc2cc(F)ccc2F)c2ccccc2S1 (stereo not given) | 107 | 109
COc1cccc(-c2cc(C(F)(F)F)n3ncc(C(=O)OC(C)C)c3n2)c1 | 102 | 107
Cc1ccc(-n2ncc(C(=O)NCCCN3CCN(c4cccc(Cl)c4)CC3)c2-n2cccc2)cc1 | 108 | 112
Cc1nc2c(-c3ccccc3)c(C)nn2c(C)c1CCC(=O)NCCc1ccccc1 | 111 | 111
O=C(NCCn1cc(SCc2ccccc2Cl)c2ccccc21)c1cccs1 | 108 | 107
CCc1ccc(NCc2cc3cc4c(cc3n(CC(=O)Nc3ccc(OC)cc3)c2=O)OCO4)cc1 | 101 | 99
COc1cccc(CNCCSc2nnnn2C)c1OCc1ccccc1Cl | 104 | 103
CCC(Oc1ccccc1)C(=O)Nc1ccccc1OCc1cc(=O)n2ccccc2n1 (stereo not given) | 110 | 111
CC(=O)Nc1ccc(S(=O)(=O)NCc2ccc(C(=O)NCc3ccc(Cl)cc3)cc2)cc1 | 105 | 108
CCCn1c(SCc2nc(-c3ccc(OC)c(OC)c3)no2)nnc1-c1ccccc1 | 109 | 113
CC1CCCN(S(=O)(=O)c2ccc3[nH]c(=O)cc(C(=O)NCCc4ccc(Cl)cc4)c3c2)C1 (stereo not given) | 108 | 108
COc1ccc(-c2noc(N(c3cccc(Cl)c3)c3nc(-c4ccc(OC)c(OC)c4)no3)n2)cc1OC | 106 | 100
COC(=O)c1c(NC(=O)COc2ccc(Cl)cc2C)sc2c1CCCCC2 | 85* | 88*
O=C(Nc1c(C(=O)c2ccc(F)cc2)oc2ccccc12)c1cc(-c2ccccc2)on1 | 102 | 107
COc1ccc(C(=O)n2nc(-c3ccc(Cl)cc3)nc2NCc2ccco2)cc1 | 104 | 105
CCc1ccccc1NC(=O)c1sc2nc3n(c(=O)c2c1C)CCC3 | 109 | 110

(next part)
mol | Polio RdRp inh | Polio RdRp inh intensity
Cc1ccc(CNC(=O)Cn2cc(C(=O)c3ccc(F)cc3)c(=O)c3ccc(C)nc32)cc1 | 113 | 119
O=C(Nc1ccc2oc(-c3cccnc3)nc2c1)c1cccc(Br)c1 | 106 | 108
O=C(NCCS(=O)(=O)N1CCN(c2cccc(Cl)c2)CC1)C(c1ccccc1)c1ccccc1 | 107 | 109
Cc1cccc(NC(=O)Cc2csc(COc3cccc(C)c3)n2)c1 | 108 | 107
CCOc1ccccc1NC(=O)c1c(NCc2sccc2C)sc2c1CCCCC2 | 114 | 113
O=C(CN1C(=O)CCc2cc(S(=O)(=O)N3CCOCC3)ccc21)Nc1cccc(Cl)c1 | 109 | 112
CCn1ccc2cc(S(=O)(=O)N3CCCN(C(=O)Nc4ccc(C)cc4)CC3)ccc21 | 110 | 113
CCCOc1ccc(-c2nc(N3CCC(C)CC3)c3ccccc3n2)cc1 | 104 | 104
COC(=O)C1=C(C)NC(=O)C1(NC(=O)c1cc(OC)c(OC)c(OC)c1)C(F)(F)F (stereo not given) | 101 | 102
CCc1ccc(N2CCn3c2nc2c3c(=O)n(C/C=C/c3ccccc3)c(=O)n2C)cc1 | 104 | 102
CCN1CCN(CCCNC(=O)Cn2nc(C)n3c(cc4cc(C)ccc43)c2=O)CC1 | 108 | 113
COC(=O)CSc1nc2sc3c(c2c(=O)n1-c1ccccc1C)CC(C)(C)OC3 | 107 | 106
CCOc1ccc(-n2cc(-c3ccccc3)c3c(N4CCN(c5ccccc5OC)CC4)ncnc32)cc1 | 110 | 114
O=C1N(Cc2ccccc2)c2ccc(Cl)cc2C1(O)c1c[nH]c2ccccc12 (stereo not given) | 103 | 107
Cc1ccc(C2CCN(C(=O)c3cnn(-c4cccc(Cl)c4)c3C3CCN(C(=O)OC(C)(C)C)CC3)C2)cc1 (stereo not given) | 104 | 103

A different layout for 6 compounds above.
Results follow in this order: Polio RdRp inh	Polio RdRp inh intensity
COC(=O)C1=C(C)NC(=O)C1(NC(=O)c1cc(OC)c(OC)c(OC)c1)C(F)(F)F (stereo not given)
  101	102
CCc1ccc(N2CCn3c2nc2c3c(=O)n(C/C=C/c3ccccc3)c(=O)n2C)cc1
  104	102
CCN1CCN(CCCNC(=O)Cn2nc(C)n3c(cc4cc(C)ccc43)c2=O)CC1
  108	113
COC(=O)CSc1nc2sc3c(c2c(=O)n1-c1ccccc1C)CC(C)(C)OC3
  107	106
CCOc1ccc(-n2cc(-c3ccccc3)c3c(N4CCN(c5ccccc5OC)CC4)ncnc32)cc1
  110	114
O=C1N(Cc2ccccc2)c2ccc(Cl)cc2C1(O)c1c[nH]c2ccccc12 (stereo not given)
  103	107

Going on with the list:
mol | Polio RdRp inh | Polio RdRp inh intensity
O=C(Cn1cnc2onc(-c3ccc(F)cc3)c2c1=O)N1CCN(c2ccccc2F)CC1 | 101 | 97
Cc1ccc(NC(=O)Cc2coc3c(C)c(C)ccc23)c(C)c1 | 114 | 112
COc1cccc(NC(=O)c2ccc(-c3nc(COc4ccc(C)cc4)c(C)o3)cc2)c1 | 104 | 103
Cc1ccc(OCC(=O)N(Cc2ccc(Cl)cc2)CC2CCCO2)cc1C (stereo not given) | 109 | 113
COc1ccc(CCNC(=O)Cn2c(-c3ccc(F)cc3)cc(C(C)=O)c2C)cc1OC | 110 | 119
COc1ccc(CCNc2nc(SCc3ccc(Cl)cc3)nc3ccccc23)cc1OC | 103 | 107
CC(CNC(=O)c1ccc2nc(Cc3ccccc3)oc2c1)c1ccccc1 (stereo not given) | 109 | 113
CCCCn1cc(S(=O)(=O)c2ccc(C)cc2)c(=O)c2cc(F)c(N3CCCCC3)cc21 | 102 | 97
O=C(Cc1ccc(F)cc1)NCCc1csc2nc(-c3ccc(Cl)cc3)nn12 | 111 | 109
Cc1ccc(NC(=O)CSCc2cc(=O)c3ccccc3[nH]2)c(C)c1 | 109 | 103
CCCCc1ccc(NC(=O)c2ccc3c(c2)CCN3S(=O)(=O)CC)cc1 | 106 | 103
COc1ccc(NC(=O)c2cc(=O)c3cc(C)cc(C)c3o2)cc1 | 110 | 109
COc1ccc(Cl)cc1NC(=O)CCn1nc(C)cc1C | 109 | 109
O=C1NC(NS(=O)(=O)c2ccccc2)(C(F)(F)F)C(=O)N1CCc1ccccc1 (stereo not given) | 100 | 101
COc1ccc(Nc2ncnc3c2cnn3-c2ccc(C)cc2C)cc1 | 103 | 106
Cc1cc(C)c(NC(=O)CSC2=Nc3ccccc3C3=NC(CC(=O)NCc4cccs4)C(=O)N23)c(C)c1 (stereo not given) | 108 | 113
CC(=O)c1[nH]c(C)c(C(=O)NCCc2ccc(C)cc2)c1C | 112 | 109
CCc1cccc(NC(=O)CCS(=O)(=O)c2ccc3nc(C)sc3c2)c1 | 107 | 104
Cc1ccc(-c2onc(C)c2C)cc1S(=O)(=O)N1CCc2ccccc21 | 103 | 98
Cc1ccc(CCNC(=O)CCn2nc(-c3ccc(Cl)cc3)ccc2=O)cc1 | 112 | 115
CCNC(=O)C1CCN(c2nnc(C)c3c(C)n(-c4ccc(OC)cc4)nc23)CC1 | 112 | 107
Cc1nc(-c2ccc(S(=O)(=O)N3CCN(c4cc(Cl)ccc4C)CC3)cc2)co1 | 111 | 107
COc1ccc(CNC(=O)C2CCN(S(=O)(=O)c3c(C)noc3/C=C/c3cccs3)CC2)cc1 | 105 | 109
COc1ccccc1CNC(=O)C1CCN(S(=O)(=O)c2cn(C)cn2)CC1 | 100 | 106
O=C(CCS(=O)(=O)c1cccs1)Nc1ccc(C(=O)Nc2cccc(Cl)c2)cc1 | 104 | 107
CCN1CCN(c2csc3ccc(F)cc3c2=O)CC1 | 109 | 107
Cc1ccc(-c2ccc(=O)n(Cc3ccc(F)cc3)n2)cc1 | 106 | 101
COc1ccc(C2=Nn3c(nc4sc(C(=O)Nc5cccc(C)c5)c(C)c4c3=O)SC2)cc1 | 112 | 101
CCOc1ccc(N2CC(NC(=O)C3CCCC3)CC2=O)cc1 (stereo not given) | 109 | 112
Cc1nc2nc(SCC(=O)NC(C)c3ccccc3)nn2c(C)c1Cc1c(F)cccc1Cl (stereo not given) | 100 | 105
COc1ccc(CNC(=O)CSCc2cnn(-c3ccccc3)c2-n2cccc2)cc1OC | 106 | 105
Cc1ccc(Cn2c(CNC(=O)c3ccccc3Br)nc3cccnc32)cc1 | 108 | 109
Cc1ccc2nc(-c3cccnc3)c(Nc3ccccc3C)n2c1 | 106 | 105
O=C1C(=O)N(C2CCN(C(=O)c3ccccc3Cl)CC2)CCN1Cc1ccc(F)cc1 | 109 | 111
CCCc1cc(N2CCN(c3cccc(C)c3C)CC2)n2cnnc2n1 | 104 | 111
CCc1ccc(CN(Cc2cn[nH]c2-c2ccc(OC)cc2)C(=O)Nc2ccc(C)c(F)c2)cc1 | 116 | 115

Given field by field: two of the compounds above
O=C(NCCn1cc(SCc2ccccc2Cl)c2ccccc21)c1cccs1
  Polio RdRp inh: 108
  Polio RdRp inh intensity: 107
COc1ccc(-c2cnnn2-c2ccc(NC(=O)c3ccccc3OC)cc2)cc1
  Polio RdRp inh: 109
  Polio RdRp inh intensity: 101

Compound activity: PubChem, ICCB-Longwood Screening Facility, Harvard Medical School
